# CBX7 AlphaScr: CBX7 inhibition, primary AlphaScreen; AlphaScreen His6-CBX7 / biotin-H3K27me3 peptide binding; active compounds read low; normalised signal (fraction of DMSO) (test concentration not listed); actives 1.1% (n = 66,000); in the data active = normalised signal below about 0.5;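 also: 100 nL library stock added to about 20 µL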
# Target sequence (O95931 whole entry, looked up): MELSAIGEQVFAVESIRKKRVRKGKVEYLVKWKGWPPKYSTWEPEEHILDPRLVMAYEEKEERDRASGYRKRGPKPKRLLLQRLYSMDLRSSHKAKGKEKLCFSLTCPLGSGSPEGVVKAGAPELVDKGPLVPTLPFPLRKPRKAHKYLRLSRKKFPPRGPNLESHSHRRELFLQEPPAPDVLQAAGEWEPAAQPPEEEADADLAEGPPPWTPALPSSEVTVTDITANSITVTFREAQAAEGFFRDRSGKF
# CBX7 AlphaScr z-score: also measured in CBX7 AlphaScr; calls as there; z-score; measured here: z-score of CBX7 signal; some inactives read as strong as hits; reference of the scale not given here;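 same signal on another scale; lower means less binding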
# * = called active by the depositor. A portion of the library. The share of hits here may be higher or lower than overall.
# The line under a structure holds: CBX7 AlphaScr z-score	CBX7 AlphaScr
> Cc1ccc(Nc2ncc(C(=O)Nc3ccccn3)c3ccccc23)cc1Cl
→ 10.5	1.53
> Cc1nc2sc(C(=O)c3ccc(Cl)cc3)c(N)c2c2c1CCCC2
→ 8.05	1.23
> OC1CCCCc2c1[nH]c1ccc(C3CCCCC3)cc21 (centres undefined)
→ -4.42	0.72
> COc1ccc(-c2ccc(=O)n(CC(=O)NCc3cccc(Cl)c3)n2)cc1
→ -0.462	0.983
> O=C1CC(c2ccccc2)CC2=C1C(c1cccc(Cl)c1)Nc1ccccc1N2 (centres undefined)
→ -1.8	0.734
> CCN(C(=O)c1cn(CC)c(=O)c2cc(OC)c(OC)cc12)c1ccc(F)cc1
→ 2.06	1.05
> CCCCNC(=O)CC1Nc2cc(C)c(C)cc2NC1=O (centres undefined)
→ 0.76	1.07
> O=C(Cc1c(C(=O)O)[nH]c2ccccc12)NCC1(c2ccccc2)CCCC1
→ 0.555	1.04
> Clc1ccc2nc(-c3ccccn3)c(Nc3ccc4c(c3)OCO4)n2c1
→ -0.722	0.585
> CCOc1ccc(-n2c(C)nc3cc(C(=O)NCCc4ccccc4)ccc32)cc1
→ -1.47	0.94
> CCOC(=O)c1cc(-c2ccc(OC)cc2)n(CCC(=O)Nc2ccc(OC)cc2)c1C
→ -2.79	0.882
> CCCCN1CCc2c(c3ccccc3n2Cc2ccccc2)C1
→ -9.25	0.508
> O=C(Nc1ccc2oc(-c3ccncc3)nc2c1)c1cccnc1
→ -0.341	0.968
> COc1ccc(CCNC(=O)c2csc3c2CCCC3)c(OC)c1
→ 2.7	1.07
> O=C(Nc1ccc(-c2nc3ccccc3o2)c(O)c1)c1ccc2c(c1)OCCO2
→ -4.77	0.716
> CN1CCN(C(=O)CCNC(=O)Cn2ccc3ccccc3c2=O)CC1
→ 1.27	1.05
> COc1ccccc1-c1nn2c(-c3ccccc3Cl)nnc2s1
→ 2.52	1.06
> CCOc1ccc(-n2ccnc2SCC(=O)Nc2c(C)cc(C)cc2C)cc1
→ -0.114	0.985
> COC(=O)c1cnn2c(C)c(Cc3cccc(C)c3)c(C)nc12
→ 0.966	1.04
> COc1ccccc1CN1C(=O)c2ccccc2C1C(=O)NCCc1ccc(OC)c(OC)c1 (centres undefined)
→ 0.906	1.02
> Cc1noc(/C=C/c2cccs2)c1S(=O)(=O)N1CCC(C(=O)Nc2ccc(Cl)cc2)CC1
→ 0.784	1.05
> CCCN(C(=O)Cc1c(C(=O)O)[nH]c2ccccc12)c1ccccc1C
→ 1.31	1.06
> COc1cccc(-c2nc(CS(=O)(=O)CC(=O)Nc3cc(F)ccc3F)c(C)o2)c1
→ 0.715	1.02
> O=C1CCCC2=C1C(c1ccsc1)CC(=O)N2c1cccc(C(F)(F)F)c1 (centres undefined)
→ 0.197	1.01
> O=C(NCC1(c2ccccc2)CCOCC1)c1ccc(Br)cc1
→ -0.134	0.952
> COc1ccc(-c2ccc(=O)n(CC(=O)Nc3cccc(C(F)(F)F)c3)n2)cc1
→ 1.13	1.04
> CCCn1cnc2cc(NCc3ccccc3OC)ccc21
→ -12.1	0.578
> CCCCOc1ccc(C(C)(O)CCN2CCOCC2)cc1 (centres undefined)
→ -3.08	0.857
> O=C(CC(C(=O)O)c1c[nH]c2ccccc12)c1ccccc1 (centres undefined)
→ 0.179	1.01
> O=C(OCCCN1CCc2[nH]c3ccc(F)cc3c2C1)c1ccc(F)cc1
→ -5.06	0.651
> COc1ccc(C2CC(C(F)(F)F)n3ncc(C(=O)NC(C)(C)C)c3N2)cc1 (centres undefined)
→ 0.868	1.02
> COc1ccccc1C(=O)Nc1nc(-c2ccccc2)cs1
→ 0.378	1.14
> Oc1c(C(Nc2ccccc2)c2ccccc2)ccc2cccnc12 (centres undefined)
→ -12.3*	0.237*
> O=C(NCc1ccccc1)c1cc2sccc2n1Cc1ccc(F)cc1
→ -0.441	0.982
> CCc1ccccc1N(CC)C(=O)Cc1c(C(=O)O)[nH]c2ccccc12
→ -0.576	0.974
> CCCCOc1ccc(C(=O)N(Cc2ccc(C(C)C)cc2)C2CCS(=O)(=O)C2)cc1 (centres undefined)
→ -0.137	0.985
> O=C(CCn1nc(-c2ccccc2)c2ccccc2c1=O)Nc1ccc(Cl)cc1
→ -1.83	0.935
> O=C(Nc1c(-c2cccs2)nc2ccc(Cl)cn12)c1ccc(Cl)cc1
→ 0.36	1.01
> CCN(CC)CCCNC(=O)C1c2cc(OC)c(OC)cc2C(=O)N2CCc3ccccc3C12 (centres undefined)
→ 0.636	1.02
> Cc1ccn2c(NC(=O)c3cccs3)c(-c3ccccc3)nc2c1
→ -0.653	0.962
> COc1ccc(Nc2cc(C)nc3ncnn23)c(OC)c1
→ 0.124	1.01
> CCCN(CCC)C(=O)c1c[nH]c2ccc(S(=O)(=O)N(C)c3ccc(F)cc3)cc2c1=O
→ 1.24	1.13
> c1ccc(-c2nnc3ccc(NCc4cccnc4)nn23)cc1
→ -1.02	0.955
> CCn1cc(C(=O)NCc2ccccn2)c(=O)c2ccc(C)nc21
→ 0.281	1.03
> CCOC(=O)CNC(=O)Cn1cnc2sc(C)c(S(=O)(=O)N3CCC(C)CC3)c2c1=O
→ 2.66	1.26
> Cc1ccc(NC(=O)Nc2ccc3c(c2)N(C)C(=O)CS3)c(C)c1
→ 0.747	1.03
> CCOC(CNC(=O)CSCc1nc(-c2ccc(Cl)cc2)oc1C)OCC
→ 2.48	1.24
> Cc1ccc(S(=O)(=O)c2c[nH]c3ccc(Cl)cc3c2=O)cc1
→ 2.87	1.08
> O=C(Cn1nc(-c2ccccc2)c2ccccc21)NCc1ccccc1Cl
→ -1.5	0.861
> COc1ccccc1N1CCN(C(=O)c2nn(-c3ccccc3OC)c(=O)c3ccccc23)CC1
→ -1.06	0.963
> Cc1ccc(-n2ncc(C(=O)Nc3ccc(C)c(C)c3)c2C2CCN(C(=O)OC(C)(C)C)CC2)cc1
→ -0.864	0.974
> Cc1cccc(NC(=O)CSc2ncc(-c3ccccc3)[nH]2)c1C
→ -2.98	0.899
> COc1ccc(-c2noc(CCC(=O)Nc3nc4ccc(OC)cc4s3)n2)cc1
→ -1.03	0.933
> CCC1Oc2ccccc2N(CC(=O)NCCCN2CCCCCC2)C1=O (centres undefined)
→ 1.06	1.1
> CC(C)CCNC(=O)c1nnc(Cc2ccc(Cl)cc2)o1
→ 2.58	1.22
> CC(C)(C)c1ccc(C(=O)Nc2nnc(COc3ccc(Cl)cc3Cl)s2)cc1
→ -0.734	0.981
> Cc1ccc(S(=O)(=O)N2CCC(C(=O)NCc3ccccc3Cl)CC2)cc1
→ 2.18	1.05
> O=C(CSc1nnc(CNC(=O)c2cccs2)o1)c1ccc(Cl)cc1
→ 0.11	1
> Cc1ccccc1CN1C(=O)c2ccccc2S(=O)c2ccc(C(=O)N3CCCCC3)cc21 (centres undefined)
→ 0.0819	1
> CCc1ccc(NC(=O)c2cc(C3CC3)on2)cc1
→ 0.816	1.06

# Arranged by value in CBX7 AlphaScr z-score (ascending): some entries from above
Structure,CBX7 AlphaScr z-score
O=C(CCn1nc(-c2ccccc2)c2ccccc2c1=O)Nc1ccc(Cl)cc1,-1.83
CCc1ccccc1N(CC)C(=O)Cc1c(C(=O)O)[nH]c2ccccc12,-0.576
COc1cccc(-c2nc(CS(=O)(=O)CC(=O)Nc3cc(F)ccc3F)c(C)o2)c1,0.715
COC(=O)c1cnn2c(C)c(Cc3cccc(C)c3)c(C)nc12,0.966

# (continued)
# The line under a structure holds: CBX7 AlphaScr z-score	CBX7 AlphaScr
> Cc1cccc(-c2noc(-c3ccccc3C)n2)c1
→ 5.16	1.22
> CC1=Nc2cc(C(=O)NC(C)CCc3ccccc3)ccc2Sc2c(C)ccc(C)c21 (centres undefined)
→ -2.2	0.857
> Cc1oc(-c2cccc(Cl)c2)nc1CS(=O)(=O)CC(=O)NCCN1CCOCC1
→ 1.04	1.02
> COc1cccc2sc(NC(=O)c3ccc(S(=O)(=O)N4CC(C)OC(C)C4)cc3)nc12 (centres undefined)
→ 1.51	1.13
> CCOc1ccc(NCc2nc3ccccc3n2CCOc2ccc(C)cc2)cc1
→ -12.7	0.654
> CCOc1ccccc1NS(=O)(=O)c1ccc2c(c1)CC(C)N2C(C)=O (centres undefined)
→ 0.12	1
> Cc1cccc(C)c1NC(=O)c1cnc2ccccn2c1=O
→ 0.901	1.03
> Cc1nc2cc(C(=O)NC3CCCCCC3)ccc2n1-c1cccc(F)c1
→ -2.08	0.88
> COc1ccc(-c2nc(Nc3cc(C)cc(C)c3)c3ccccc3n2)cc1OC
→ 3.11	1.15
> COc1ccc(C2CC(=O)N(CC(=O)Nc3ccc(C)cc3)c3ccccc3S2)cc1OC (centres undefined)
→ -3.11	0.781
> Fc1ccc(Nc2c(-c3ccccn3)nc3ccc(Cl)cn23)cc1
→ -1.14	0.858
> COc1ccc(OC)c2[nH]c(=O)c(CCNC(=O)c3ccc(Cl)cc3)cc12
→ -1.89	0.891
> Cc1ccc(Cn2nnc3c(=O)n(CC(=O)Nc4cccc(C)c4)cnc32)cc1
→ -2.46	0.85
> Cc1ccc(-c2cc(C(=O)NCC3CCCO3)c3ccccc3n2)cc1C (centres undefined)
→ 2.16	1.09
> COc1ccc(NC(=O)CC2C(=O)N(c3cccc(Cl)c3)C(=O)N2Cc2cccs2)cc1 (centres undefined)
→ 1.96	1.45

# The closing four entries of the part before open the next one.
# The line under a structure holds: CBX7 AlphaScr z-score	CBX7 AlphaScr
> COc1ccc(OC)c2[nH]c(=O)c(CCNC(=O)c3ccc(Cl)cc3)cc12
→ -1.89	0.891
> Cc1ccc(Cn2nnc3c(=O)n(CC(=O)Nc4cccc(C)c4)cnc32)cc1
→ -2.46	0.85
> Cc1ccc(-c2cc(C(=O)NCC3CCCO3)c3ccccc3n2)cc1C (centres undefined)
→ 2.16	1.09
> COc1ccc(NC(=O)CC2C(=O)N(c3cccc(Cl)c3)C(=O)N2Cc2cccs2)cc1 (centres undefined)
→ 1.96	1.45
> O=C1C2C3c4ccccc4C(CO)(c4ccccc43)C2C(=O)N1c1ccc(F)cc1 (centres undefined)
→ 0.728	1.04
> CC1=Nc2cc(C(=O)N3CCOCC3)ccc2Sc2c(C)ccc(C)c21
→ 0.748	1.05
> NC(=O)N1CCC(=O)Nc2ccccc21
→ -1.37	0.926
> Cc1ccc(Cc2cnc(NC(=O)COc3ccc(Br)cc3)s2)cc1
→ 0.669	1.02
> CCC1=Nc2cc(C(=O)NCCc3cccc(C)c3)ccc2Sc2ccc(C)cc21
→ 0.0703	1.01
> CCc1ccc2nc(N3CCCC(C(=O)NC4CCCCC4)C3)sc2c1 (centres undefined)
→ 0.367	1.03
> Cc1ccccc1Cc1c(C)nc2c(C(=O)NCCCN3CCOCC3)cnn2c1C
→ -1.52	0.858
> CCCS(=O)(=O)c1c(S(=O)(=O)CCC)c2cc(-c3ccncc3)ccn2c1C(N)=O
→ 2.21	1.08
> CCCn1c(CCNC(=O)c2ccccc2OC)nc2ccccc21
→ 0.214	1.01
> CC1=Nc2cc(C(=O)NCCN3CCCC3)ccc2Sc2c(C)ccc(C)c21
→ -0.269	0.982
> O=C(CSc1oc(-c2ccc(F)cc2)nc1S(=O)(=O)c1ccccc1)NC1CCCCC1
→ 0.0349	1.02
> COc1ccc(NC(=O)C(NS(=O)(=O)c2ccc3c(c2)CCN3C(C)=O)C(C)C)cc1OC (centres undefined)
→ 1.76	1.04
> O=C(c1ccccc1F)N1CCN(c2ccc3nnc(-c4ccc(F)cc4)n3n2)CC1
→ -1.17	0.917
> CCN(C(=O)C(CCS(C)(=O)=O)NC(C)=O)c1ccccc1 (centres undefined)
→ 1.43	1.03
> CC1CCCCC1Nc1nc(-c2ccccc2F)nc2ccccc12 (centres undefined)
→ 0.0268	1.02
> Cc1c(Cl)cccc1NC(=O)C1CCN(c2nnc(-n3cccc3)s2)CC1
→ 1.04	1.03
> O=C(CN1C(=O)COc2ccc(S(=O)(=O)N3CCCC3)cc21)NCc1ccc(F)cc1
→ 1.72	1.13
> CCOC(=O)CN(Cc1ccccc1)C(C(=O)NC1CCCCC1)c1ccc(OC)cc1 (centres undefined)
→ -2.52	0.75
> Cc1ccc(NC2c3ccccc3C(=O)N2c2ccc(Cl)cn2)c(C)c1 (centres undefined)
→ -0.983	0.931
> CCCCCCNC(=O)c1c[nH]c2ccc(S(=O)(=O)N3CCOCC3)cc2c1=O
→ 1.48	1.1
> O=C(Cn1nc(-c2ccccc2)c2ccccc2c1=O)N1CCC(Cc2ccccc2)CC1
→ -1.83	0.832
> CC(=O)Nc1ccc(NC(=O)CSc2ncnc3sc4c(c23)CCCC4)cc1
→ -0.161	0.921
> O=C(NCCCN1CCN(Cc2ccccc2)CC1)c1ccc2c(c1)NC(=O)c1ccccc1S2
→ 1.54	1.21
> COc1cccc(C(=O)Nc2ccc(S(=O)(=O)Nc3cc(C)nc(C)n3)cc2)c1
→ -0.243	0.979
> O=C(Nc1ccccn1)C1CC(=O)N(c2ccc(F)cc2)C1 (centres undefined)
→ -0.0806	0.98
> COc1cc(OC)cc(-c2nnc(NC(=O)c3ccc(S(=O)(=O)N4CCC(C)CC4)cc3)o2)c1
→ -0.429	0.981
> CN1CCN(CCCNC(=O)COc2ccc3c(c2)C(=O)CC(C)(C)O3)CC1
→ -8.09	0.59
> O=C(Nc1nc(-c2ccncc2)cs1)c1ccc(S(=O)(=O)N2CCCCCC2)cc1
→ -0.119	0.995
> Cc1ccc(-c2noc(CCC(=O)N(C)c3ccccc3)n2)cc1
→ -0.105	0.997
> CCN1CCN(Cc2ccc(NC(=O)CN3C(=O)CSc4ncccc43)cc2)CC1
→ 0.0101	1
> O=C(CSc1nnc(CNC(=O)c2ccccc2F)o1)NCCc1ccccc1
→ 0.468	1.02
> Fc1ccc(COc2ccccc2CNc2ccc(-c3nc4ccccc4s3)cc2)cc1
→ 20.8	1.64
> COCCCNC(=O)Cn1ncc2c1-c1cc(C)ccc1OC2
→ 0.428	1.02
> COCCNC(=O)c1sc2ncn(CC(=O)Nc3cccc(C(F)(F)F)c3)c(=O)c2c1C
→ 0.71	1.02
> COCc1cc(=O)n2c([nH]c3ccccc32)c1C#N
→ -0.542	0.98
> O=C(CN1N=C(c2ccccc2)CCC1=O)NCCCN1CCOCC1
→ 1.09	1.07
> CCc1ccc(CNC(=O)CCc2cn(C)c3ccccc23)cc1
→ -0.735	0.982
> Cc1cc(C(=O)CN2CCOCC2)c(C)n1-c1ccc(Cl)c(C(F)(F)F)c1
→ -3.28	0.766
